Screening results from PubChem BioAssay.
GLA inh pH 4.5 = blocks human alpha-galactosidase A at pH 4.5. activity change, negative = inhibition, % at 105 µM. purified enzyme, 4-MU-alpha-Gal fluorescence, pH 4.5. P06280. 230,000 tested, under 10 active; inconclusive = small, poorly fitted or top-dose-only inhibition, or a rising curve; inactive = flat fitted curve, though single readings scatter; no compound was filed as active;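 also: 0% = full activity with enzyme and -100% = basal without enzyme; dose as in the result columns while the protocol names 77 µM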
Target sequence (P06280 whole entry, looked up): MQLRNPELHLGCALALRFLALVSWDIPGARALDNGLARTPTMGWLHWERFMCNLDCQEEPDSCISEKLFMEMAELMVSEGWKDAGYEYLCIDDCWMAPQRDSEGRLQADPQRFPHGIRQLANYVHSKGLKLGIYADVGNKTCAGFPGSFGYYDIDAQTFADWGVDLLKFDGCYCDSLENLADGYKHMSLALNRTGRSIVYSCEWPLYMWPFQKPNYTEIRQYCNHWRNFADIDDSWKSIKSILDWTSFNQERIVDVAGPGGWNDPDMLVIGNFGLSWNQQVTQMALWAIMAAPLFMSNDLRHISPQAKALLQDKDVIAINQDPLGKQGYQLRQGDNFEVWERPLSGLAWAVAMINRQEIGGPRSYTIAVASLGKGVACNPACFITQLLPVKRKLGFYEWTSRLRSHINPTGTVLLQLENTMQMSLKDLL
miR-21 FLuc = raises the signal of a miR-21 reporter | HeLa miR-21 FLuc reporter, luciferase, 48 h | Potency, µM (top dose mostly 38.3 µM), for inactives: at the highest dose reporter change, positive = more light | 340,000 tested, under 10 active; active = well fitted rising curve with a large enough effect; inconclusive = small, poorly fitted or top-dose-only effect; inactive = no such curve, though single readings can be large or run the other way;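 also: % of control where 0% means no effect; miR-21 action dims this reporter so a rising signal means less miR-21 action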
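Luminescence from a firefly luciferase reporter carrying a miR-21 binding site downstream, stably expressed under a CMV promoter in HeLa cells that make miR-21 endogenously, reports miRNA modulation after 48 h compound exposure up to approximately 40uM final.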
Rango dissoc inh = inhibitors of RanGTP-induced Rango-importin beta complex dissociation | Biochemical FRET Rango-importin beta, RanGTP-induced dissociation | Potency, µM (top dose mostly 46.1 µM), for inactives: top-dose activity change, negative = inhibition | hit rate 0.071% among 340,000 | O95149+P62826; active means falling FRET ratio curve, often poorly fitted, with flat reads before Ran was added; inconclusive means other falling curves, or compound fluorescence or quenching; inactive means flat or rising ratio curve;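 also: potency is read from the fitted curve at half-maximal effect; % of control where 0% means no effect; nearly all actives have a fitted effect of over 45% in size; -100% = wells without RanGTP and RCC1; the record marks most hits as doubtful in a second field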
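FRET read at 45 min, room temperature: inhibitors block the CFP/YFP signal rise when RanGTP (0.6 uM Ran, 2 mM GTP, 0.2 uM RCC1) frees Rango (0.1 uM) from importin beta (0.25 uM). Pre-read after 5 min compound exposure flags interference.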
Rango complex inh = inhibitors of Rango-importin beta complex formation; Q14974; Rango CFP/YFP FRET sensor + importin beta, 45 min; Potency, µM (highest dose often 92.2 µM), inactives show at the top dose inhibition of complex formation; hit rate 0.031% among 340,000; AID 540263; active = rising FRET ratio curve, often small or poorly fitted; inconclusive = mostly compound fluorescence or quenching in the first reads; inactive = flat curves in all reads;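 also: potency is read from the fitted curve at half-maximal effect; 0% = DMSO wells and 100% = buffer wells lacking importin beta; nearly all actives have a fitted effect of over 15% in size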
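FRET biosensor Rango (snurportin 1 IBB between N-terminal EYFP and C-terminal Cerulean), 50 nM in PBS/1 mM DTT/0.02% Tween-20/0.1% BSA, preincubated 5 min RT with compound; 0.125 microM importin beta added, 45 min RT, CFP/YFP FRET ratio read.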
* hit, by the source's call; ? = inconclusive; . = not tested or not shown. This is a subset; rates above refer to the full screens.

SMILES | GLA inh pH 4.5 | miR-21 FLuc | Rango dissoc inh | Rango complex inh
CC1CCCN(c2nc(N(C)c3ccccc3)nc(N)c2[N+](=O)[O-])C1 (configuration not stated) | -13 | -15% | -17% | -0.2%
O=c1oc2ccccc2n1CCCCCn1c(=O)oc2ccccc21 | 2 | -31% | 6% | -4.0%
O=C(Nc1ccc2c(c1)Cc1ccccc1-2)c1ccccc1F | . | . | 3% | 0.1%
COc1ccc(-c2c(NCCc3ccccc3)c(=O)c2=O)cc1 | . | 4% | 21% | -3.9%
CCn1c(SCC(=O)Nc2ccccc2N2CCOCC2)nnc1-c1ccccc1 | 2 | -4% | 4% | 0.0%
C=CCN1C(=O)C(CC(=O)O)SC1=Nc1c(C)n(C)n(-c2ccccc2)c1=O (configuration not stated) | -3 | -2% | 1% | 5.2%
C/C(=N\NC(=S)NC1CCCCC1)c1ccc(Cl)c(Cl)c1 | 3 | -10% | 0% | -5.2%
CCOC(=O)C1CCCN(C(=O)Cn2cnc3sc(C)c(S(=O)(=O)N4CCOCC4)c3c2=O)C1 (configuration not stated) | . | -1% | 1% | -0.3%
Cc1c(NS(=O)(=O)c2ccc3c(c2)Cc2ccccc2-3)c(=O)n(-c2ccccc2)n1C | 2 | -2% | -19% | 0.6%
Clc1nc(Cl)c2ncn(-c3ccccc3)c2n1 | . | . | -20% | ?
COc1ccc(CN(CC(=O)NCCc2ccccc2)C(=O)CCC(=O)Nc2ccccn2)cc1 | . | 2% | -11% | -2.7%
CSc1ccccc1NC(=O)C1=COCCO1 | . | -10% | 6% | -2.0%
CSCCC(NS(=O)(=O)c1ccc(C)cc1)C(=O)N1CCN(C(c2ccccc2)c2ccccc2)CC1 (configuration not stated) | . | . | 4% | 0.3%
CCOC(=O)c1cc(S(=O)(=O)N2CCN(C(=O)OCC)CC2)cn1C | 2 | -3% | 1% | 1.1%
[O-][n+]1c2ccccc2cc2ccccc21 | . | . | ? | ?
CCOC(=O)c1c(NC(=S)NC)sc2c1CC(C)(C)SC2 | -2 | -6% | -1% | -1.8%
Cc1nn(CC(=O)N(CC(C)C)C2CCS(=O)(=O)C2)c(C)c1[N+](=O)[O-] (configuration not stated) | . | . | 1% | -3.1%
O=S(=O)(CCNCCc1ccccc1)NCc1ccccc1 | . | . | 15% | -1.4%
CCn1cnnc1SCC(=O)c1c(N)n(C2CC2)c(=O)[nH]c1=O | . | . | -17% | 11%
CC(C)C(CO)N1CCN(Cc2ccccc2)CCC1=O (configuration not stated) | 4 | 3% | 19% | ?
O=C(Nc1ccc(S(=O)(=O)N2CCCC2)cc1)c1cccc(OC(F)F)c1 | . | . | 5% | 1.6%
Cc1c(C(=O)N/N=C/c2ccc(N(C)C)cc2)[nH]c2ccc(Cl)cc12 | 1 | 21% | ? | ?
NC(=S)NN=C1C2CC3CC(C2)CC1C3 | 6 | 11% | -4% | 0.0%
Cc1ccccc1-c1nsc(SCC(=O)NCc2ccc3c(c2)OCO3)n1 | -1 | -14% | 10% | -3.4%
CCN(CC)C(=O)Oc1ccc2c(=O)c(-c3ccc(OC)cc3)c(C)oc2c1 | -20 | 8% | 10% | -0.7%
COc1ccc(/C=C/C(=O)OCC(=O)NCC2CCCO2)cc1 (configuration not stated) | 2 | -5% | 1% | -3.6%
Cc1noc(C)c1CSc1nc2ccccc2c(=O)n1-c1ccccc1 | -2 | 7% | 8% | 2.3%
Cc1n[nH]c(=S)n(/N=C/c2cccs2)c1=O | -3 | -5% | -18% | 1.6%
COc1cccc(C2NC(=O)NC(C)=C2C(=O)Nc2cc(OC)ccc2OC)c1 (configuration not stated) | 3 | -3% | 10% | 11%
CC(=O)N=c1c(C#N)cc2c(=O)n3cccc(C)c3nc2n1Cc1ccco1 | -2 | 4% | ? | ?
Cc1nc2nc(SCC(=O)NCCCN3CCCC(C)C3)nn2c(C)c1Cc1ccccc1Cl (configuration not stated) | . | -4% | 1% | 1.2%
O=C(CCCN1C(=O)c2ccccc2C1=O)Nc1nnc(C2CC2)s1 | 0 | 0% | -1% | 0.1%
CC(=O)Nc1ccc(S(=O)(=O)NCCC(=O)OCC(=O)c2ccccc2)cc1 | . | . | 14% | 3.2%
Cc1n[nH]c(=O)c2c1nnn2Cc1ccc(F)cc1 | . | -4% | -14% | -1.2%
Cc1nn(CC(=O)NCC(C)c2ccccc2)c(=O)c2cc3occc3n12 (configuration not stated) | . | -6% | 2% | -0.6%
CS(=O)(=O)Nc1ccc(C(=O)Nc2ccc(S(=O)(=O)N3CCCC3)cc2)cc1 | 3 | 2% | -13% | -2.9%
Cc1ccc(N(CC(=O)N2CCc3ccccc32)S(=O)(=O)c2cccs2)cc1 | 1 | 0% | -14% | 0.9%
COc1ccc(C2C(C(=O)N3CCOCC3)=C(C)NC3=C2C(=O)CC(C)(C)C3)c(OC)c1 (configuration not stated) | 20 | 1% | 5% | -3.7%
Cc1ccc(NC(=O)c2nc[nH]c2C(=O)N2CCCCC2)c(C(=O)c2ccccc2)c1 | 6 | 1% | -2% | ?
CS(=O)(=O)N(Cc1ccccc1)c1ccc(C(=O)NCCSc2ccccn2)cc1 | -10 | -7% | 4% | -2.8%
O=[N+]([O-])c1cccc(/C=N/Nc2cc(Cl)nc(-c3ccccc3)n2)c1 | -1 | 3% | 1% | -0.3%
O=C(Nc1cccc(NC(=O)c2cccc([N+](=O)[O-])c2)n1)c1cccc([N+](=O)[O-])c1 | . | -8% | 1% | -3.7%
N#CCn1c(CCl)nc2ccccc2c1=O | 1 | 6% | -7% | 2.3%
CCOc1cc(NC(=S)Nc2cccc(OC)c2)c(OCC)cc1NC(=O)C1CC1 | 3 | -9% | -1% | 0.4%
CCOc1ccc(Nc2ncnc3c2cnn3C)cc1 | . | -32% | -9% | 3.5%
Cc1cn2c(-c3ccc(Cl)cc3)nnc2s1 | -2 | -10% | 29% | 0.1%
COc1ccccc1-c1cc(C(=O)N2CCN(c3ccccc3OC)CC2)no1 | -4 | 14% | -2% | 1.2%
CCCC[C@H]1C2=C3[C@@H](CC(C(=O)OC)=C[C@@H](C(=O)OC)[C@H]3C(C)(C)C2=O)n2c(=O)n(-c3ccccc3)c(=O)n21 | . | . | -11% | -3.3%
C[n+]1c(-c2ccccc2)sc([S-])c1-c1ccccc1 | . | . | -19% | -0.3%
O=C1C(=Cc2ccco2)CCCC1=Cc1ccco1 | . | . | -26% | ?
CC(=O)c1ccc(OCC(O)CN(C)CCOc2ccc(Br)cc2)cc1 (configuration not stated) | . | 23% | 10% | -2.2%
O=C(CN1CCN(Cc2ccccc2)CC1)N/N=C/c1cccs1 | -3 | -6% | -7% | -0.4%
Cc1cc([N+](=O)[O-])nn1CCCC(=O)NC1CCCCC1 | -8 | -3% | 10% | 0.5%
Fc1ccc(COc2ccc(/C=N/n3cnnc3)cc2)cc1 | -3 | -37% | 7% | -1.4%
O=C(Nc1nnc(-c2ccco2)s1)C1CC1 | -11 | -50% | 12% | -1.2%
COc1ccccc1NC(=O)CSC1=NC(=O)C(Cc2ccccc2)C(=O)N1 (configuration not stated) | . | 0% | -4% | -2.8%
Cc1cc(C)n2nc(C(=O)OCC(=O)Nc3cc(Cl)ccc3C)nc2n1 | . | . | -4% | -3.1%
O=C(NNC(=O)C1CC=CCC1)c1ccccc1Cl (configuration not stated) | . | -42% | 16% | 0.1%
Cc1ccc2c(C)cc[n+](CCCS(=O)(=O)[O-])c2c1 | 7 | -12% | -5% | -0.1%
O=C1/C(=C\c2ccco2)NC(=S)N1c1ccccc1 | -5 | -21% | -27% | ?

New compounds follow.
SMILES | GLA inh pH 4.5 | miR-21 FLuc | Rango dissoc inh | Rango complex inh
Cc1sc(NC(=O)C2CCCCC2C(=O)O)c(C(N)=O)c1-c1ccc(C(C)C)cc1 (configuration not stated) | 5 | -19% | -16% | ?
COc1ccc(-c2c(NC(=O)c3ccco3)n(-c3ccccc3)nc(C)c2=O)cc1 | 4 | -2% | 0% | 3.8%
Cn1cc(SCC(=O)NCc2ccc3c(c2)OCO3)c2ccccc21 | -5 | -9% | -11% | -0.8%
O=C(Cn1cnc2c(cnn2-c2ccc(F)cc2)c1=O)NCc1ccco1 | -7 | 16% | -18% | ?
C/C(CC(=O)NCC(C)C)=N\NC(=O)COc1cc(C)c(Br)cc1Br | -13 | -10% | -7% | ?
Cc1ccc(-c2csc(NC(=O)c3ccno3)n2)cc1 | -2 | -41% | 0% | -1.4%
O=C(c1ccc(OC2CCN(Cc3ccccc3OC(F)F)CC2)cc1)N1CCCC1 | . | 23% | 0% | -1.6%
O=C(c1cccs1)N1CCN(S(=O)(=O)N2CCOCC2)CC1 | 1 | -4% | -11% | -0.2%
CC(=O)c1ccc(S(=O)(=O)NCCC(=O)OCC(=O)NCCc2ccccc2)cc1 | . | 1% | -7% | -2.3%
Cc1nnc(SCC(N)=O)n1CC1CCCO1 (configuration not stated) | 3 | -2% | 0% | -0.2%
O=C(Cc1ccccc1)NNC(=O)Nc1ccc(Cl)c(Cl)c1 | 0 | 16% | 16% | 1.8%
CCCCCCn1c(CN2CCN(C(=O)c3ccco3)CC2)nc2c1c(=O)n(C)c(=O)n2C | -1 | -2% | 0% | 0.6%
Cc1nc(Oc2ccc(S(=O)(=O)N3CCOCC3)cc2Cl)c2c3c(sc2n1)CCCC3 | -16 | 0% | -4% | 1.2%
COC(=O)c1ccc(CSc2ncnc3c2nnn3-c2ccc(F)cc2)o1 | -19 | -1% | 16% | -0.4%
CCCc1ncc(C(O)c2cccc(OC)c2)n1C (configuration not stated) | -2 | 0% | 13% | -2.7%
Cc1cc(N)ccc1NC(=O)CN1CCCC1 | . | 0% | -5% | 1.3%
COc1cc(CN(C)Cc2nc3cc(C(F)(F)F)ccc3c(=O)[nH]2)ccc1OC(F)F | -7 | 4% | 8% | 3.2%
Cc1ccc(CN2CCCOCCS2(=O)=O)cc1 | . | -4% | 21% | 0.6%
CCOC(=O)C1C(=O)CC(C)(O)C(C(=O)OCC)C1c1ccc(Br)o1 (configuration not stated) | -1 | 3% | 6% | -1.9%
COc1ccc(S(=O)(=O)NCc2c(-c3ccccc3)noc2C)c(OC)c1 | 0 | -1% | 11% | 3.4%
CC(=O)Nc1cccc(/C(C)=N/NC(N)=S)c1 | -9 | 3% | 2% | 3.6%
O=c1[nH]ncc(N2CCN(C(c3ccccc3)c3ccccc3)CC2)c1Cl | -7 | 5% | 0% | 0.5%
O=C(CCC1CCCN(C(=O)CCCc2ccccc2)C1)N1CCN(c2ccccn2)CC1 (configuration not stated) | -17 | 8% | -6% | -3.3%
COc1ccc(CN2CCN(S(=O)(=O)c3ccc(F)cc3)CC2)cc1OC | 2 | 1% | -16% | 4.3%

7 successive entries from above, quoted:
SMILES | GLA inh pH 4.5 | miR-21 FLuc | Rango dissoc inh | Rango complex inh
Cc1nc(Oc2ccc(S(=O)(=O)N3CCOCC3)cc2Cl)c2c3c(sc2n1)CCCC3 | -16 | 0% | -4% | 1.2%
COC(=O)c1ccc(CSc2ncnc3c2nnn3-c2ccc(F)cc2)o1 | -19 | -1% | 16% | -0.4%
CCCc1ncc(C(O)c2cccc(OC)c2)n1C (configuration not stated) | -2 | 0% | 13% | -2.7%
Cc1cc(N)ccc1NC(=O)CN1CCCC1 | . | 0% | -5% | 1.3%
COc1cc(CN(C)Cc2nc3cc(C(F)(F)F)ccc3c(=O)[nH]2)ccc1OC(F)F | -7 | 4% | 8% | 3.2%
Cc1ccc(CN2CCCOCCS2(=O)=O)cc1 | . | -4% | 21% | 0.6%
CCOC(=O)C1C(=O)CC(C)(O)C(C(=O)OCC)C1c1ccc(Br)o1 (configuration not stated) | -1 | 3% | 6% | -1.9%

(cont.)
SMILES | GLA inh pH 4.5 | miR-21 FLuc | Rango dissoc inh | Rango complex inh
Cc1c(NC(=O)/C(C#N)=C/c2ccc(-c3ccccc3Cl)o2)c(=O)n(-c2ccccc2)n1C | -28 | -6% | -12% | 0.9%
N#Cc1cnn(CC2CCCCC2)c1N | 6 | -6% | -9% | ?
Cc1ccc(NC2=C([N+](=O)[O-])CS(=O)(=O)C2)cc1 | -5 | -14% | 11% | -1.7%
COCCn1c(C)cc(C(=O)COC(=O)c2ccc(Cl)c(S(N)(=O)=O)c2)c1C | . | . | 27% | -0.3%
